Yeast UUG start = modulators of start codon recognition fidelity in yeast; activity score, % at 18.7 µM; AID 602363; S. cerevisiae UUG-firefly luciferase reporter, luminescence/redox ratio; 350,000 compounds, 0.13% hits;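 active = replicate mean at a twofold rise or more, about +100% in these data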;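 also: firefly luciferase made from a UUG start codon reports start codon fidelity; reporter light over untreated wells divided by growth signal over untreated wells; some hits fall short of that in this replicate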
Env fusion inh = blocks HIV Env-driven cell-cell fusion. HeLa-JRFL Env/CEM21 cell fusion, luciferase. inhibition, % at 12.3 µM. 360,000 compounds, 1.1% hits. AID 651610;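 active = mean replicate inhibition score of at least 50 and every replicate individually at or above 50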;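 also: 0% = plate neutral controls and 100% = maraviroc near 300 nM; one replicate is shown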
* marks the source's active call; other numbers are inactive results; [ ] = remark or other dose. This is a subset; count on the stated rates, not on these rows.

Yeast UUG start	Env fusion inh	Compound
-5	11[16.7 µM]	COc1cccc(C#Cc2ccc3c(c2)O[C@H](CN(C)C(=O)c2ccccn2)[C@H](C)CN([C@@H](C)CO)S3(=O)=O)c1
6	-6[16.7 µM]	CNC[C@@H]1Oc2ccc(NS(=O)(=O)c3cn(C)cn3)cc2CC(=O)N([C@H](C)CO)C[C@@H]1C
17	-12[16.7 µM]	CC(C)NC(=O)Nc1ccc2c(c1)C(=O)N([C@H](C)CO)C[C@@H](C)[C@H](CN(C)C(=O)Nc1ccc(C(F)(F)F)cc1)OCCCC[C@@H](C)O2
-3	-5[16.7 µM]	CCCNC(=O)N(C)C[C@@H]1Oc2ncc(-c3ccccc3)cc2C(=O)N([C@@H](C)CO)C[C@H]1C
1	-16[16.7 µM]	CO[C@@H]1CN(C)C(=O)c2ccc(NS(=O)(=O)c3ccc(Cl)cc3)cc2OC[C@H](C)N(C)C[C@H]1C
3	4[16.7 µM]	COC(=O)C[C@@H]1C[C@@H]2c3cc(NC(=O)CC4CC4)ccc3O[C@@H]2[C@@H](CO)O1
-7	26[16.7 µM]	C[C@H]1CCCCO[C@H](CN(C)Cc2ccc3c(c2)OCO3)[C@@H](C)CN([C@@H](C)CO)C(=O)c2cc(NC(=O)Nc3cccc4ccccc34)ccc2O1
12	1[16.7 µM]	CNC(=O)C[C@@H]1CC[C@@H]2[C@H](COc3ccc(NC(=O)c4ccccc4F)cc3C(=O)N2C)O1
-8	5[16.7 µM]	O=C(Nc1ccc(C(F)(F)F)cc1)N[C@H]1CC[C@@H](CCn2cc(C3(O)CCCC3)nn2)O[C@@H]1CO
-10	45[16.7 µM]	COc1cccc(S(=O)(=O)N(C)C[C@@H]2Oc3ncc(C#Cc4ccc(F)cc4)cc3C(=O)N([C@H](C)CO)C[C@@H]2C)c1

Molecules listed so far with nitrogen in an aromatic ring:
Yeast UUG start	Env fusion inh	Compound
-5	11[16.7 µM]	COc1cccc(C#Cc2ccc3c(c2)O[C@H](CN(C)C(=O)c2ccccn2)[C@H](C)CN([C@@H](C)CO)S3(=O)=O)c1
6	-6[16.7 µM]	CNC[C@@H]1Oc2ccc(NS(=O)(=O)c3cn(C)cn3)cc2CC(=O)N([C@H](C)CO)C[C@@H]1C
-3	-5[16.7 µM]	CCCNC(=O)N(C)C[C@@H]1Oc2ncc(-c3ccccc3)cc2C(=O)N([C@@H](C)CO)C[C@H]1C
-8	5[16.7 µM]	O=C(Nc1ccc(C(F)(F)F)cc1)N[C@H]1CC[C@@H](CCn2cc(C3(O)CCCC3)nn2)O[C@@H]1CO
-10	45[16.7 µM]	COc1cccc(S(=O)(=O)N(C)C[C@@H]2Oc3ncc(C#Cc4ccc(F)cc4)cc3C(=O)N([C@H](C)CO)C[C@@H]2C)c1

Additional structures
Yeast UUG start	Env fusion inh	Compound
12	-2[16.7 µM]	C[C@H]1CN([C@@H](C)CO)C(=O)c2cccc(NC(=O)NC3CCCCC3)c2O[C@H]1CN(C)C(=O)Nc1cccc2ccccc12
4	0[16.7 µM]	Cc1noc(C)c1NC(=O)N(C)C[C@H]1Oc2ccc(NC(=O)Nc3ccc(F)cc3)cc2C(=O)N([C@@H](C)CO)C[C@H]1C
-10	-24[16.7 µM]	Cc1noc(C)c1S(=O)(=O)Nc1ccc2c(c1)C(=O)N([C@H](C)CO)C[C@H](C)[C@@H](CN(C)S(=O)(=O)c1ccc(Cl)cc1)OCCCC[C@H](C)O2
22	-7[16.7 µM]	Cc1ccc(S(=O)(=O)N(C)C[C@H]2Oc3ccc(NC(=O)C4CCCCC4)cc3CC(=O)N([C@@H](C)CO)C[C@H]2C)cc1
-11	-13[16.7 µM]	C[C@@H]1CCCCO[C@H](CN(C)C(=O)Cc2ccccc2)[C@@H](C)CN([C@H](C)CO)C(=O)c2cc(NC(=O)Nc3ccc4c(c3)OCO4)ccc2O1
14	-24[16.7 µM]	N#C[C@@H]1[C@@H](c2ccc(C3=CCCC3)cc2)[C@@H](CO)N1C(=O)NC1CCCC1
11	-3[16.7 µM]	C[C@@H]1CN([C@@H](C)CO)C(=O)c2cc(-c3cccc(F)c3)cnc2O[C@H]1CN(C)C(=O)Nc1cc(F)ccc1F
20	3[16.7 µM]	Cc1noc(C)c1S(=O)(=O)Nc1ccc2c(c1)CC(=O)N([C@@H](C)CO)C[C@H](C)[C@@H](CN(C)S(=O)(=O)c1ccccc1)O2
-9	2[16.7 µM]	COCCNC(=O)C[C@H]1C[C@@H]2c3cc(NC(=O)C4CCOCC4)ccc3O[C@@H]2[C@H](CO)O1
14	39[16.7 µM]	O=C(C[C@@H]1C=C[C@H](NC(=O)Nc2ccc(C(F)(F)F)cc2)[C@H](CO)O1)NCc1cc(F)cc(F)c1
8	-11[16.7 µM]	O=C(Nc1ccc2c(c1)[C@@H]1C[C@H](CC(=O)N3CCOCC3)O[C@@H](CO)[C@@H]1O2)NC1CCCCC1
8	4[16.7 µM]	C[C@@H]1CN([C@H](C)CO)C(=O)c2cc(NC(=O)C3CC3)ccc2O[C@H]1CN(C)S(=O)(=O)c1ccc(F)cc1
62	-5[16.7 µM]	C[C@H](CO)N1C[C@H](C)[C@@H](CN(C)C(=O)c2cccnc2)Oc2ncc(C3=CCCCC3)cc2C1=O
32	7[16.7 µM]	COc1ccc(S(=O)(=O)N(C)C[C@H]2Oc3ccc(NC(=O)C4CC4)cc3CC(=O)N([C@@H](C)CO)C[C@H]2C)cc1
-9	17[16.7 µM]	C[C@@H]1CN([C@@H](C)CO)C(=O)c2cc(NS(=O)(=O)c3ccc(Cl)cc3)ccc2O[C@@H]1CN(C)S(=O)(=O)c1cccs1
-6	3[16.7 µM]	COc1ccc(NC(=O)Nc2ccc3c(c2)C(=O)N([C@@H](C)CO)C[C@@H](C)[C@@H](CN(C)S(C)(=O)=O)OCCCC[C@@H](C)O3)cc1
7	38[16.7 µM]	C[C@@H]1CCCCO[C@@H](CN(C)Cc2ccc(Cl)c(Cl)c2)[C@H](C)CN([C@H](C)CO)C(=O)c2cc(NS(=O)(=O)c3ccccc3)ccc2O1
-7	8[16.7 µM]	N#C[C@@H]1[C@H](c2ccc(-c3ccccc3F)cc2)[C@H](CO)N1C(=O)Cc1ccccc1
3	-125[16.7 µM]	C[C@@H]1CCCCO[C@H](CN(C)CC2CCCCC2)[C@@H](C)CN([C@@H](C)CO)C(=O)c2cc(NS(=O)(=O)c3cccs3)ccc2O1
38	15[16.7 µM]	CC(C)NC(=O)Nc1ccc2c(c1)C(=O)N([C@@H](C)CO)C[C@@H](C)[C@H](CN(C)C(=O)Nc1ccc(C(F)(F)F)cc1)OCCCC[C@@H](C)O2
15	-4[16.7 µM]	C[C@H]1CCCCO[C@H](CN(C)S(C)(=O)=O)[C@@H](C)CN([C@@H](C)CO)C(=O)c2cc(NC(=O)C3CCCCC3)ccc2O1
14	-14[16.7 µM]	C/C=C/c1ccc2c(c1)O[C@H](CN(C)C(=O)CN1CCOCC1)[C@@H](C)CN([C@@H](C)CO)S2(=O)=O
15	-6[16.7 µM]	CO[C@@H]1CN(C)C(=O)c2ccc(NC(=O)Cc3ccccc3)cc2OC[C@@H](C)N(C)C[C@H]1C
-5	-32[16.7 µM]	C[C@@H]1CN([C@@H](C)CO)C(=O)c2cc(NC(=O)Cc3cn(C)c4ccccc34)ccc2O[C@@H]1CN(C)S(=O)(=O)c1ccc(Cl)cc1
-7	-8[16.7 µM]	C[C@@H]1CCCCO[C@H](CN(C)Cc2ccc(C(=O)O)cc2)[C@H](C)CN([C@H](C)CO)C(=O)c2cc(NC(=O)CCC(F)(F)F)ccc2O1
1	-7[16.7 µM]	COCC(=O)N(C)C[C@H]1Oc2ncc(-c3ccc(C)cc3)cc2C(=O)N([C@H](C)CO)C[C@H]1C
-6	-7[16.7 µM]	C[C@@H]1CCCCO[C@H](CN(C)Cc2ccc3c(c2)OCO3)[C@@H](C)CN([C@@H](C)CO)C(=O)c2cc(NS(=O)(=O)c3cn(C)cn3)ccc2O1
-12	5[16.7 µM]	Cc1ccc(S(=O)(=O)N[C@@H]2C=C[C@@H](CC(=O)O)O[C@@H]2CO)cc1
-4	-5[16.7 µM]	C[C@@H]1CN([C@H](C)CO)C(=O)c2cc(NC(=O)Nc3ccc(C(F)(F)F)cc3)ccc2O[C@H]1CN(C)C(=O)Nc1ccc(C(F)(F)F)cc1
-6	-22[16.7 µM]	O=C(C[C@@H]1CC[C@H](NC(=O)NC2CCCC2)[C@H](CO)O1)NCc1ccc(F)cc1
13	3[16.7 µM]	COCC(=O)N1[C@H](CO)[C@H](c2ccc(C#Cc3ccccc3F)cc2)[C@@H]1C#N
-3	-2[16.7 µM]	C[C@@H]1CCCCO[C@H](CN(C)CC2CC2)[C@H](C)CN([C@H](C)CO)C(=O)c2cc(NC(=O)c3ccncc3)ccc2O1
-7	-100[16.7 µM]	CC(C)NC(=O)N(C)C[C@H]1OCCCC[C@H](C)Oc2ccc(NS(=O)(=O)c3cccs3)cc2C(=O)N([C@H](C)CO)C[C@@H]1C
-7	9[16.7 µM]	CCCNC(=O)C[C@H]1CC[C@H]2[C@@H](COc3ccc(NC(=O)c4ccno4)cc3C(=O)N2C)O1
-15	-14[16.7 µM]	C[C@@H]1CN([C@H](C)CO)C(=O)c2cccc(NC(=O)Nc3ccc(F)cc3)c2O[C@@H]1CN(C)Cc1ccncc1
13	17[16.7 µM]	CC(C)NC(=O)N(C)C[C@@H]1Oc2cc(C#Cc3ccc(F)cc3)ccc2S(=O)(=O)N([C@H](C)CO)C[C@@H]1C
-8	12[16.7 µM]	C[C@H]1CN([C@@H](C)CO)C(=O)c2cc(C#CC3CCCC3)cnc2O[C@@H]1CN(C)Cc1ccncc1
-5	13[16.7 µM]	C[C@H](CO)N1C[C@H](C)[C@H](CN(C)C(=O)Nc2ccc(C(F)(F)F)cc2)Oc2ccc(NC(=O)Nc3ccc4c(c3)OCO4)cc2CC1=O
16	-12[16.7 µM]	CCCNC(=O)N(C)C[C@H]1Oc2cc(C#C[C@@H](C)O)ccc2S(=O)(=O)N([C@H](C)CO)C[C@H]1C
1	-12[16.7 µM]	O=C(N[C@H]1CC[C@@H](CCNS(=O)(=O)c2cccc(Cl)c2)O[C@@H]1CO)c1ccc(F)cc1
-17	9[16.7 µM]	O=C(NCc1ccc(Cl)cc1)C1=C[C@H](c2coc3ccccc3c2=O)C[C@H](OCCCCO)O1
-18	1[16.7 µM]	O=C(C[C@H]1CC[C@H](NC(=O)c2ccncc2)[C@H](CO)O1)Nc1ccccc1
8	16[16.7 µM]	C[C@H]1CN([C@@H](C)CO)C(=O)c2cc(NC(=O)CCC(F)(F)F)ccc2O[C@H]1CN(C)Cc1ccc(Oc2ccccc2)cc1
5	-12[16.7 µM]	C[C@H](CO)N1C[C@H](C)[C@H](CN(C)Cc2ccccc2)Oc2c(NS(=O)(=O)c3cccs3)cccc2C1=O
-14	16[16.7 µM]	C[C@H]1CN([C@@H](C)CO)C(=O)Cc2cc(NS(=O)(=O)c3ccc(Cl)cc3)ccc2O[C@@H]1CN(C)Cc1ccc(Cl)c(Cl)c1
5	-4[16.7 µM]	C[C@H](CO)N1C[C@H](C)[C@H](CN(C)CC2CCCCC2)Oc2ccc(NC(=O)NC3CCCCC3)cc2CC1=O
-2	-2[16.7 µM]	CN1C(=O)c2cc(NC(=O)c3ccc(F)cc3)ccc2OC[C@@H]2O[C@H](CC(=O)O)CC[C@@H]21
17	9[16.7 µM]	C[C@H]1CN([C@@H](C)CO)C(=O)c2cc(C#Cc3ccncc3)cnc2O[C@@H]1CN(C)Cc1ccncc1
0	-8[16.7 µM]	O=C(Cc1ccncc1)N[C@@H]1CC[C@H](CCn2cc(-c3ccccc3F)nn2)O[C@H]1CO
-2	-24[16.7 µM]	C[C@@H]1CCCCO[C@H](CN(C)C(=O)Nc2ccccc2)[C@H](C)CN([C@@H](C)CO)C(=O)c2cc(N(C)C)ccc2O1

Full records from above.
Shown for `C[C@H](CO)N1C[C@H](C)[C@H](CN(C)CC2CCCCC2)Oc2ccc(NC(=O)NC3CCCCC3)cc2CC1=O` = Yeast UUG start = 5; Env fusion inh = -4[16.7 µM]
Shown for `C[C@H]1CN([C@@H](C)CO)C(=O)c2cc(NC(=O)CCC(F)(F)F)ccc2O[C@H]1CN(C)Cc1ccc(Oc2ccccc2)cc1` = Yeast UUG start = 8; Env fusion inh = 16[16.7 µM]

Continuation:
Yeast UUG start	Env fusion inh	Compound
-7	-29[16.7 µM]	C[C@@H]1CCCCO[C@H](CN(C)C(=O)Nc2ccc(C(F)(F)F)cc2)[C@@H](C)CN([C@H](C)CO)C(=O)c2cc(NS(=O)(=O)c3ccccc3)ccc2O1
-1	1[16.7 µM]	C[C@@H]1CN([C@H](C)CO)C(=O)c2cc(C#Cc3ccccc3)cnc2O[C@@H]1CN(C)C(=O)CCN1CCCCC1
2	10[16.7 µM]	C[C@H]1CCCCO[C@H](CN(C)Cc2ccncc2)[C@@H](C)CN([C@@H](C)CO)C(=O)c2cc(NS(=O)(=O)c3cn(C)cn3)ccc2O1
-15	8[16.7 µM]	C[C@H](CO)N1C[C@H](C)[C@@H](CN(C)S(=O)(=O)c2cccs2)OCCCC[C@H](C)Oc2ccc(NC(=O)NC3CCCCC3)cc2C1=O
9	17[16.7 µM]	C[C@@H]1CCCCO[C@H](CN(C)C(=O)Nc2ccc(C(F)(F)F)cc2)[C@H](C)CN([C@H](C)CO)C(=O)c2cc(NC(=O)C3CCCCC3)ccc2O1
-5	4[16.7 µM]	O=C(C[C@H]1C[C@@H]2c3cc(NC(=O)CC4CC4)ccc3O[C@@H]2[C@@H](CO)O1)NCc1ccccc1
2	-61[16.7 µM]	C[C@@H]1CCCCO[C@H](CN(C)C(=O)C2CCCCC2)[C@H](C)CN([C@H](C)CO)C(=O)c2cc(NC(=O)c3ccccc3)ccc2O1
-10	-17[16.7 µM]	CC(C)NC(=O)Nc1ccc2c(c1)CC(=O)N([C@H](C)CO)C[C@@H](C)[C@H](CN(C)Cc1ccccc1)O2

Bioassay records as filed in PubChem BioAssay.
